Screening results from PubChem BioAssay.
RecA splice inh – blocks M. tuberculosis RecA intein splicing. inhibition, %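 (about 9 µM by stock and volumes)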. 0.75% of 290,000 active. AID 2221. cell-free RecA intein splicing, fluorescence. P9WHJ3; in the data active means inhibition above about 30%; inconclusive means no clear call, values can overlap the other calls;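 further: 0% = vehicle wells and 100% = reference inhibitor control wells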
Target sequence (P9WHJ3 whole entry, looked up, canonical isoform): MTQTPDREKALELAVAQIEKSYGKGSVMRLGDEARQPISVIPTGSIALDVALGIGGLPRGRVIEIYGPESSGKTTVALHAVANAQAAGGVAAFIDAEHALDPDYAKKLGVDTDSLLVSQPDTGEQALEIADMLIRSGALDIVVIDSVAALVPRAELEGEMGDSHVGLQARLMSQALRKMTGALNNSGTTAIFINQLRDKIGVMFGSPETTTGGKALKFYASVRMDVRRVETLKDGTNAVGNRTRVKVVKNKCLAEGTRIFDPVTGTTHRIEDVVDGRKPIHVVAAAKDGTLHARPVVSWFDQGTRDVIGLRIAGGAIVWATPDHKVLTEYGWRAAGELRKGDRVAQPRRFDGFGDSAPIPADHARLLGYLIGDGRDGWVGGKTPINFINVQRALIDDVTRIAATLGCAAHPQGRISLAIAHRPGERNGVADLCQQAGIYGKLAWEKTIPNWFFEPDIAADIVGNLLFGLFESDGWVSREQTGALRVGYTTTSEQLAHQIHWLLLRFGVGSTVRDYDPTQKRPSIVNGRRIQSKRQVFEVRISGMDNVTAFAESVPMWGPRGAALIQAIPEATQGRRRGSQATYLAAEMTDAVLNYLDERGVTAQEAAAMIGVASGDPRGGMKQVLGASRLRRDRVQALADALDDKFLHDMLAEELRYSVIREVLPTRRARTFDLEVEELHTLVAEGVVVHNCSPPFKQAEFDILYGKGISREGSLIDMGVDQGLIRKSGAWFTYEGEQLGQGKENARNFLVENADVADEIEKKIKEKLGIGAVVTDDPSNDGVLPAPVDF
Mtb growth – M. tuberculosis H37Rv growth inhibitors, H37Rv strain (AID 1626); M. tuberculosis H37Rv growth inhibition; higher % means a stronger effect; inhibition, % at 10 µM, or IC50 in µM where a hit was titrated; 0.95% of 220,000 active;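 active means confirmed in a dose series; inconclusive means inhibition above 80% but not taken into the dose series; inactive means below 80% or under 30% at every dose of the series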;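 further: bacteria incubated seven days before Alamar blue readout; 0% = bacteria only wells and 100% = bacteria with antibiotic wells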
Arbovirus anti – antivirals against arbovirus infection; arbovirus infection cell-based antiviral screen; inhibition, % at 10 µM; 0.37% of 200,000 active;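 active means inhibition from about 30%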;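 further: bluetongue infection of BSR cells; cell survival read as ATP light after 72 h; 0% = infected wells without compound and 100% = uninfected wells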
Mtb betalactam – beta-lactam sensitization of Mtb H37Rv; M. tuberculosis H37Rv growth with meropenem, percent inhibition; hits of this screen are not shown here; inhibition, % at 25 µM; 0.27% of 330,000 active; AID 434955;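 active means about 74% or more and at least 40 points above the plate without the antibiotic, then above 30% in a dose series; inconclusive means first-round hits that could not be retested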;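 further: growth measured after seven days incubation then overnight dye step; 0% = bacteria only wells and 100% = bacteria with antibiotic; twin plates without the antibiotic show which effects depend on it; some results filed as inactive read as strong as hits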
YopH PTP inh – YopH (Yersinia) phosphatase inhibition; fluorescence Ex485/Em525; inhibition, %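 (about 10 µM by stock and volumes)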; 0.16% of 140,000 active; AID 898;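 active means inhibition of 50% or more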;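 further: controls were vehicle for no effect and minimum signal wells for full effect; inactives centre near -20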
Arbovirus anti repeat – further read-out of Arbovirus anti, marked with its call; inhibition, %; measured here: 10K subset replicate screen; many hits read low in the repeat;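 first of two repeat runs on a subset; 0% = infected and 100% = uninfected wells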
Starred values were filed as active, the others as inactive; i = inactive; ? = inconclusive; · = no result given.

Start of the data: the first 6 records, to show the layout:
SMILES | RecA splice inh | Mtb growth | Arbovirus anti | Mtb betalactam | YopH PTP inh | others
Brc1cccc(-c2nnc3sc(CN4CCC5(CC4)OCCO5)cn23)c1 | -4.1 | -6% | -5 | -16 | 0
CC(C)CNC(=S)NC(=O)c1ccc(Cl)cc1 | -0.6 | 0% | 0 | 3 | -35
N#CC1(NC(=O)CN2c3cccc4cccc(c34)S2(=O)=O)CCCCC1 | 11 | · | · | -3 | ·
CC1=C(C(=O)Nc2ccccc2)C(c2ccc(C(C)C)cc2)N2C(=O)CSC2=N1 (centres undefined) | -0.4 | 0% | 4 | -1 | 12
O=C(N/N=C/c1ccco1)c1cc(-c2ccc(Cl)s2)[nH]n1 | -3.4 | 77% | 18 | -2 | ·
O=C(CNC1=NCCC1)c1ccc2c(c1)OCCO2 | -0.3 | -3% | -16 | 3 | -18

Main list, repeating the preview:
SMILES | RecA splice inh | Mtb growth | Arbovirus anti | Mtb betalactam | YopH PTP inh | others
Brc1cccc(-c2nnc3sc(CN4CCC5(CC4)OCCO5)cn23)c1 | -4.1 | -6% | -5 | -16 | 0
CC(C)CNC(=S)NC(=O)c1ccc(Cl)cc1 | -0.6 | 0% | 0 | 3 | -35
N#CC1(NC(=O)CN2c3cccc4cccc(c34)S2(=O)=O)CCCCC1 | 11 | · | · | -3 | ·
CC1=C(C(=O)Nc2ccccc2)C(c2ccc(C(C)C)cc2)N2C(=O)CSC2=N1 (centres undefined) | -0.4 | 0% | 4 | -1 | 12
O=C(N/N=C/c1ccco1)c1cc(-c2ccc(Cl)s2)[nH]n1 | -3.4 | 77% | 18 | -2 | ·
O=C(CNC1=NCCC1)c1ccc2c(c1)OCCO2 | -0.3 | -3% | -16 | 3 | -18
O=C(Cc1csc(Nc2nc(=S)[nH]c3ccccc23)n1)NCc1ccc(Cl)cc1 | -6.7 | -2% | 2 | 72 | -23
Cc1cccc(OCc2nc(C#N)c(NCc3ccc4c(c3)OCO4)o2)c1 | 13 | 15% | -9 | 5 | -8
Cc1ccc(C)c(-n2nnnc2SCC(=O)Nc2c(C)n(C)n(-c3ccccc3)c2=O)c1 | 0.9 | -4% | -6 | -4 | -10
CCOc1ccc(NC(=S)N(CCOC)C2CCN(C(C)C)CC2)cc1 | -0.3 | · | · | -4 | ·
O=C(CN1CC[C@@]2(O)CCCC[C@H]2[C@@H]1c1ccc(F)cc1)NCc1ccco1 | 0.4 | -5% | · | 5 | ·
O=[N+]([O-])c1ccccc1S(=O)(=O)NCCSc1ccccc1 | 5.4 | · | · | -4 | ·
CCCC(=O)N(Cc1cc(=O)[nH]c2ccccc12)c1ccccc1C | 4.6 | · | · | ? | ·
CCC(=O)OC1(c2ccccc2)C(C)CN(C)CC1C (centres undefined) | -6.3 | -9% | 0 | 1 | ·
CCCNC(=O)CN1C(=O)NC(c2ccccc2)(c2ccccc2)C1=O | -1.6 | · | · | 8 | ·
CCCCN(C)CCCNC(=O)c1cn(C)c2ccc(S(=O)(=O)N(C)C3CCCCC3)cc2c1=O | -2.1 | · | · | -9 | ·
N=C1C(=O)OCC1c1ccccc1NC(=O)CN1CCOCC1 (centres undefined) | -11 | 2% | 6 | 0 | -22
Cc1ccc(C)c(NC(=S)NCc2ccc3[nH]c4c(c3c2)CCCC4)c1 | 1.7 | 23% | -34 | 3 | -27
C=CCOc1ccc(C=Nc2ccc(Cl)cc2)c(O)c1 | 0.2 | 44% | -10 | 21 | -25
CCOc1ccc(Nc2nc3c(c(=O)[nH]2)CCC3)cc1 | 0.7 | -5% | -1 | 4 | -29
O=c1cc(-c2ccccc2)[nH]n1-c1nc2ccccc2[nH]1 | -5.0 | 8% | -24 | -5 | -17
COC(=O)NNC(=O)c1cccc(C)c1 | 0.2 | -4% | 1 | · | -20
O=C1CCCN1C(=O)c1cncc(Br)c1 | 0.6 | -8% | 7 | 3 | -1
CCOC(=O)N1CCN(c2nc(C)c3c(n2)CCCC3=O)CC1 | -3.3 | -2% | 2 | 10 | 6
C=CCc1ccc(OCCCCOc2ccc(C(=O)O)cc2)c(OC)c1 | 2.7 | 16% | 16 | 27 | ·
O=C(NNc1nc2ccccc2s1)C1CC1 | -7.3 | -6% | 1 | -5 | -6
C=CCn1c(SCc2ccc(C#N)cc2)nnc1-c1ccccc1 | · | 0% | 5 | -10 | -13
CCC(=O)N1CC2(CC(c3cccc([N+](=O)[O-])c3)=NO2)C[C@H]1C(=O)NCC(N)=O (some centres undefined) | 0.0 | -12% | 5 | -16 | -18
Cc1occc1C(=O)N1CCCC(Nc2ccc(F)c(F)c2)C1 (centres undefined) | 1.1 | · | · | -8 | ·
COc1ccc(C(O)(C(=O)NNc2ccc(C)cc2)c2cccs2)cc1 (centres undefined) | -1.9 | ? | -35 | 1 | -14
Cc1c(C)n(CCCN(C)C)c2ncnc(NC3CCCCC3)c12 | -2.1 | · | · | -7 | ·
CC(=O)N1CCN=C1SCc1cccc(C(F)(F)F)c1 | 5.7 | 5% | 2 | -7 | -10
CC(=O)COc1ncnc2c(Cl)cc(Cl)cc12 | 0.9 | -8% | 16 | -1 | ·
O/N=C1/CCSc2ccccc21 | -2.4 | 0% | -1 | -14 | -36
CCOc1ccccc1NC(=O)C(OC(=O)c1ccc(N(C)C)cc1)c1ccccc1 (centres undefined) | -1.3 | 3% | 4 | 5 | -13
CCC1CCCCN1C(=O)c1c[nH]c2ccc(S(=O)(=O)N(C)c3ccc(Cl)cc3)cc2c1=O (centres undefined) | 13 | 9% | -17 | 7 | -22
CC(=O)Nc1ccc(NC(=O)CSc2ccc3nnc(-c4cccnc4)n3n2)cc1 | -1.1 | · | · | -8 | ·
CCc1nc(C)cc2c1sc1ccccc12 | 8.8 | 3% | · | 1 | ·
O=C(c1c(F)cccc1F)N1CCN=C1SCc1ccccc1 | 4.7 | 6% | · | -3 | ·
Clc1ccc2c(c1)Nc1ccccc1CC2 | 14 | · | · | -1 | ·

Of the compounds above, 2 contain bromine:
SMILES | RecA splice inh | Mtb growth | Arbovirus anti | Mtb betalactam | YopH PTP inh | others
Brc1cccc(-c2nnc3sc(CN4CCC5(CC4)OCCO5)cn23)c1 | -4.1 | -6% | -5 | -16 | 0
O=C1CCCN1C(=O)c1cncc(Br)c1 | 0.6 | -8% | 7 | 3 | -1

Next part.
SMILES | RecA splice inh | Mtb growth | Arbovirus anti | Mtb betalactam | YopH PTP inh | others
CC(NC(=O)C1CCC(CNS(=O)(=O)c2ccccc2)CC1)c1ccccc1 (centres undefined) | -0.2 | · | · | -3 | ·
Cc1cc(C)c2nc(Cl)c(Cl)nc2c1 | -3.2 | -5% | · | 16 | ·
CCOC(=O)c1ccc2ncc(-c3ccccc3)nc2c1 | 3.9 | 4% | -6 | · | ·
Cc1nc2cc(NS(=O)(=O)c3ccc(Br)cc3)ccc2n1C | 5.1 | 3% | 3 | -4 | ·
CCC(c1nnc(SCC(=O)NC23CC4CC(CC(C4)C2)C3)o1)N(C)C (centres undefined) | · | -5% | 7 | -12 | -27
C=CCc1ccccc1OCC(=O)NNC(=S)NCc1ccccc1 | 0.5 | · | · | -7 | ·
CN(C(=O)c1ccccc1C(=O)OCC(=O)Nc1ccc(S(N)(=O)=O)cc1)c1ccccc1 | 2.3 | · | · | 0 | ·
CCCCC1=CC2=C(c3ccco3)C(=O)C(C)(OC(=O)c3ccc(OC)cc3)C(=O)C2=CN1Cc1ccc(OC)cc1 (centres undefined) | 7.1 | -5% | · | · | ·
NC(N)=Nc1nc2ccc([N+](=O)[O-])cc2[nH]1 | -0.4 | -5% | · | 2 | ·
Cc1ccc(/C=C(\C#N)C(=O)Nc2c(C)cccc2C)s1 | 0.5 | 0% | -5 | -4 | -7
CN(C(=O)CN1C(=O)S/C(=C\c2ccccc2Cl)C1=O)C1CCS(=O)(=O)C1 (centres undefined) | -0.8 | · | · | 2 | ·
O=C(CSc1nnc(-c2ccco2)o1)NC1CCCCCC1 | -0.2 | -7% | -2 | 15 | -15
C/C(N)=C(/C#N)C(=O)CSc1nncn1-c1ccccc1 | -1.7 | 0% | 5 | -1 | ·
Cn1c(=O)c(C(=O)COC(=O)c2cc(-c3ccco3)nc3ccccc23)c(N)n(CC2CC2)c1=O | -11 | · | 16 | 63 | -25
CCc1cc(Cn2nc(-c3ccccc3)cc2C(=O)NCCOC)on1 | 0.7 | · | · | 7 | ·
O=C(NNc1nc2c(F)cc(F)cc2s1)c1ccccc1 | -4.8 | 6% | -2 | -1 | ·
Cc1cc(S(=O)(=O)c2cc3ccc(O)c(C)c3oc2=O)ccc1F | i | · | · | -2 | ·
CCN(C(=O)CN1C(=O)/C(=C/c2ccccc2)SC1=S)C1CCS(=O)(=O)C1 (centres undefined) | 4.0 | · | · | -1 | ·
COCCN(C(=O)COC(=O)CNC(=O)c1cccs1)c1c(N)n(Cc2ccccc2)c(=O)[nH]c1=O | 0.7 | · | · | 3 | ·
O=C(CSc1oc(-c2ccco2)nc1S(=O)(=O)c1ccc(F)cc1)NCC1CCCO1 (centres undefined) | 2.3 | -8% | 6 | -4 | -5 | Arbovirus anti repeat=5
Cc1cc(C(=O)N=Nc2c(O)n(C)c3ccccc23)c(C)o1 | 3.0 | 6% | -8 | -1 | -27
CCOc1ccc(NC(=O)c2cc3c(=O)n(C)c4ccccc4c3n2C)cc1 | -2.6 | -3% | -7 | 0 | -28
CCCCNC(=O)c1cc2ccccc2s1 | 0.8 | 11% | 3 | 5 | ·
O=C1C(=O)N(CCCn2ccnc2)C(c2cccc(Br)c2)/C1=C(\O)c1ccc2c(c1)OCCO2 (centres undefined) | 1.7 | · | · | -5 | ·
O=C(CCN1CCN(c2ccccc2F)CC1)Nc1ccc2c(c1)OCO2 | -2.7 | -9% | -14 | -4 | -19
COc1cccc(-c2nc(CS(=O)(=O)CC(=O)Nc3ccc(C(C)=O)cc3)c(C)o2)c1 | -2.3 | · | · | 5 | ·
O=C(Cc1ccc(-n2cccc2)cc1)NC1CCCCCC1 | 0.0 | 3% | -10 | 37 | -16
O=C(NC1CCN(C(=O)Nc2ccccc2Cl)CC1)c1ccco1 | 0.8 | · | · | 4 | ·
COc1ccc(-c2cnc(SCC(=O)Nc3ccc4c(c3)OCO4)n2Cc2ccco2)cc1 | 19 | · | 5 | · | -12 | Arbovirus anti repeat=-10
COc1ccc(N=c2cc(-c3ccc(O)cc3)oc3ccccc23)cc1 | 6.9 | 5.8µM* | -28 | 98 | -25
CCCC[C@@H]1CCCO[C@@](C(=O)NCc2ccccn2)(C(F)(F)F)C1 | 0.6 | 11% | · | -4 | ·
CC(c1ccccc1)N1C(=O)CC(Sc2ncccc2C(=O)O)C1=O (centres undefined) | 0.6 | 4% | 3 | 0 | -68
O=C(O)/C(CC(=O)c1ccc(Cl)cc1)=N/Nc1ccc([N+](=O)[O-])cc1[N+](=O)[O-] | 11 | · | · | 3 | ·
c1cncc(-c2nc(NCc3cccs3)c3ccccc3n2)c1 | -3.1 | 35% | -4 | 4 | ·
O=C(CSCc1ccccc1)Nc1ccccc1 | 0.8 | · | · | 15 | ·
Cc1ccc2nc(C)cc(Nc3ccc([N+](=O)[O-])cc3)c2c1 | -1.7 | 6% | -32 | 1 | ·
Cn1c(=O)oc2cc(S(=O)(=O)N3CCCC(C(=O)NCCN4CCOCC4)C3)ccc21 (centres undefined) | · | 6% | 7 | -3 | -20 | Arbovirus anti repeat=0
CC(=O)c1ccc(COC(=O)Cc2ccc([N+](=O)[O-])cc2)cc1 | -4.6 | · | · | 10 | ·
COc1ccccc1NC(=O)Nc1cc(F)ccc1F | 0.7 | -5% | 11 | 0 | ·
O=C(COC(=O)c1ccc(NS(=O)(=O)c2cccs2)cc1)NCC1CCCO1 (centres undefined) | -1.2 | 9% | 8 | -2 | ·
Cc1nn(C)c(C)c1CN(C(=O)C1CCC(=O)N(C2CCCCCC2)C1)C(C)C (centres undefined) | -7.7 | · | · | -6 | ·
CC(=O)NCCn1c(SCc2cccc([N+](=O)[O-])c2)nc2ccccc2c1=O | -1.5 | 9% | 1 | -1 | ·
O=C(NCCNCc1ccc(F)cc1)c1ccco1 | 4.0 | -7% | 7 | -2 | -9
COC(=O)/C(C#N)=C/c1occc1C | -2.8 | -5% | 0 | 8 | -25
COCCn1c(=S)[nH]c2cc(C(=O)N3CCN(Cc4ccc5c(c4)OCO5)CC3)ccc2c1=O | · | -4% | -11 | 5 | 1
CC(C)n1c(C(F)(F)F)nc2cc(C(=O)N3CCC(O)CC3)ccc21 | -0.1 | -6% | · | 1 | ·
CCCn1c(C(O)c2ccc(OC)c(OC)c2)nc2ccccc21 (centres undefined) | 3.7 | · | · | -6 | ·
CC(=O)c1cc(C)ccc1OC(=O)c1cccnc1 | 2.8 | 0% | 2 | -2 | -38
COc1ccc(-c2nn(CCC#N)cc2C(=O)Nc2ccccc2Br)cc1 | 0.4 | · | · | 0 | ·

These rows are one share of the data, so the mix of outcomes need not match the whole.
